Assay outcomes from PubChem.
HCMV UL50-53 inh – inhibitors of HCMV UL50-UL53 interaction, biochemical, HTRF; HCMV UL50-UL53 nuclear egress complex (human cytomegalovirus); normalized percent inhibition; inhibition, % (no concentration beside the values); 190,000 tested, 0.15% active;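 active = both replicates at 50% or more, plus weaker picks with an unusually low signal ratio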;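 note: stock transfer was 100 nL into about 20 µL; 0% = negative control wells and 100% = wells with untagged competitor protein; inactives centre near -12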
* hit, by the source's call; & = joins results of further samples. The list is partial (hit frequency here may not be typical).

SMILES | HCMV UL50-53 inh
COc1ccc(NC2CC(=O)N(Cc3ccccc3)C2=O)cc1 (stereo not drawn) | -3
CCc1ccccc1NC(=O)c1cc(Cl)sc1Cl | -5
COc1ccc2cc(Br)ccc2c1CC#N | -12
O=C(c1ccccc1)c1ccc(N2CCOCC2)cc1O | -7
CSc1nc2ccc(NC(=O)C3COc4ccccc4O3)cc2s1 (stereo not drawn) | -8
CN1CCc2c(OCC(=O)Nc3ccccc3)cccc2C1=O | -16
O=c1[nH]c(=O)n(C2CC(O)C(CO)O2)cc1F (stereo not drawn) | -10&-29
O=C1NC(=O)C(=Cc2ccc3nccnc3c2)S1 | -4&-9&-4&-6
O=c1oc2ccccc2cc1-c1nc2ccccc2o1 | -14
Cc1cc(=O)[nH]c(SCc2cn3ccccc3n2)n1 | -11
O=C1COc2ccc(N3Cc4ccccc4C3)cc2N1 | 4
COc1ccc2c(c1)c(CC(=O)Nc1cccnc1)c(C)n2C(=O)c1ccc(Cl)cc1 | 0&0
O=c1c(-c2ccc(Cl)cc2)coc2cc(O)ccc12 | -8
c1ccc2nc(N3CCOCC3)cnc2c1 | -46
CCS(=O)(=O)N1CCN=C1SCc1ccccc1C | -10
CCCCCCCCCCCCCCCCOC[C@H](COP(=O)([O-])OCC[N+]1(C)CCCC1)OC(C)=O | 1&1
Cc1cccc(N2C(=O)CC(N(O)c3ccccc3)C2=O)c1C (stereo not drawn) | -10
CC(NC(=O)Oc1ccccc1)C(c1cccs1)N1CCN(c2ccccc2)CC1 (stereo not drawn) | 1
CN(C)CCCn1cc(C2=C(c3c[nH]c4ccccc34)C(=O)NC2=O)c2ccccc21 | -69&-106&-156&-144
CCSc1nc2ccccc2[nH]1 | -7
COc1cc(C2(c3ccc(N)c(OC)c3)CCCCC2)ccc1N | -14
O=C1CC(c2ccccc2)Sc2nc(-c3ccccc3)nn21 (stereo not drawn) | -4
COc1cccc2c(=O)n(CC(=O)NC3CCCC3)ccc12 | 2
O=C1CCCN2N=C(SC/C=C/c3ccccc3)SC2=N1 | -7
COC(=O)Nc1ccc(SCC(=O)Nc2ccc(C)cc2)cc1 | -4
O=C1NC(=O)/C(=C\c2ccccc2)S1 | -6
COc1ccc(N=Cc2c(O)cc(C)oc2=O)c(OC)c1 | -6
CC(C)c1ccc(C2C(C#N)=C(SCC(N)=O)NC3=C2C(=O)CCC3)cc1 (stereo not drawn) | -24
CCCCCC(=O)OC[C@H](CO)OC(=O)CCCCC | -33&-33
CC1(C)C(=O)NC2=C1C(=O)C(=O)c1ccccc12 | 107*
O=C(/C=C/c1ccc(/C=C/C(=O)Nc2ccc(C3=NCCN3)cc2)cc1)Nc1ccc(C2=NCCN2)cc1 | 9&9
Cc1cc2ccccc2n2c(SCC(=O)NCC3CCCO3)nnc12 (stereo not drawn) | 3
CCN(C(=O)c1c(O)c2c(Cl)cccc2n(C)c1=O)c1ccccc1 | -9
CCCCC[C@H](O)/C=C/[C@@H]1[C@@H](C/C=C\CCCC(=O)N(C)C)[C@@H](O)C[C@H]1O | 0&0
CC(C)NC(CC(=O)Nc1ccccc1Cl)C(=O)O (stereo not drawn) | 2&-8
O=C(NCCN1CCOCC1)c1sc2cc(Cl)ccc2c1Cl | -3&-7
Nc1nccc2c1ncn2C1C=C(CO)C(O)C1O (stereo not drawn) | -1
CCOc1ccc(NC(=O)CN2C(=O)S/C(=C/c3ccc(Cl)cc3)C2=O)cc1 | 2
O=C(O)c1cc(I)ccc1NC(=O)C(Cc1ccccc1)NCc1ccccc1 (stereo not drawn) | 6
O=c1[nH]c2ccccc2c2ncnc(Nc3ccc(OC(F)(F)F)cc3)c12 | -11
O=C(CSc1nccn1-c1ccccc1)Nc1ccc2c(c1)OCO2 | -7
CCCOc1ccc2c3c(c(=O)oc2c1)CCC3 | -2
CC(C)CN1CCN(c2ccc(C(F)(F)F)cn2)C(C)C1=O (stereo not drawn) | -11
Cn1ncc(C(=O)CC#N)c1C(F)(F)F | -2
CC(=O)Nc1ccc(S(=O)(=O)c2ccc(N)cc2)cc1N | -19
O=S(=O)(Nc1ccc(O)c(Sc2nc3ccccc3s2)c1)c1cccs1 | -16
CC(CCN1CCC(n2cc(CO)nn2)CC1)CC(C)(C)C (stereo not drawn) | -20
O=C(Nc1cc(N2CCOCC2)ncn1)c1ccccc1 | -12
Cc1cccc(NC(=O)CCSc2ccccc2)c1C | -14
C=CCn1c(CO)nc2ccccc21 | -19
COc1ccc(C(=O)Cc2ccccc2)cc1 | -17
O=C1CCCN2N=C(SCc3ccccc3)SC2=N1 | -15
COc1ccccc1-c1nnc(NC(=O)CSCc2ccccc2)s1 | -8
CCN(CC)c1ccc(C(=O)N=c2sc3cc(OC)ccc3n2CCOC)cc1 | -2
COc1ccc(OCC(O)Cn2cnc3ccccc32)cc1 (stereo not drawn) | -6
Cc1cccc(Cn2nnc(C(=O)Nc3ccc(Br)cc3)c2N)c1 | 2
COC(=O)CC1COc2ccccc2N1C(=O)c1ccc(Cl)cc1 (stereo not drawn) | -3
NC(=NC(=O)c1cnccc1C(F)(F)F)c1ccccn1 | -7
Cc1cc2cc(CNC(=O)C(C)Oc3ccccc3)ccc2[nH]1 (stereo not drawn) | -12
O=S(=O)(O)c1cc(I)c(O)c2ncccc12 | -90

(cont.)
SMILES | HCMV UL50-53 inh
O=c1cc(-c2ccccc2)c2ccc(O)c(O)c2o1 | -71
COC(=O)CSC1=C(C#N)C(c2ccc(Cl)cc2Cl)CC(=O)N1 (stereo not drawn) | -8
Cc1ccccc1C(N)CC(=O)O (stereo not drawn) | 1
CCN1C(=O)/C(=C/c2ccccc2O)SC1=S | -10
O=C(NCc1nc2ccccc2[nH]1)c1cccs1 | 5
CCC(=O)N1CCc2cc(OC)c(OC)cc2C1COc1ccc(F)cc1 (stereo not drawn) | -6
COc1cccc2c(=O)n(CC(=O)N3CCCCC3)ccc12 | 4
CC(C)(C)c1cc(NC(=O)CSc2n[nH]c(=O)n2-c2ccc3c(c2)OCCO3)cc(C(C)(C)C)c1 | -12
CCN(CC)S(=O)(=O)c1ccc(C(=O)Nc2nc3c(F)cc(F)cc3s2)cc1 | -8
O=C1NC(=O)C2C1ON(c1ccccc1)C2c1ccccc1 (stereo not drawn) | -5
O=C(CC(NCc1cccnc1)C(=O)O)Nc1ccccc1 (stereo not drawn) | -6
Cc1ccc(NC(c2ccc(O)cc2)P(=O)(c2ccccc2)c2ccccc2)cc1 (stereo not drawn) | -10
CCC(CC)CN1CCC(N2CCSCC2)CC1 | -24
O=C(CC1CCCCCC1)N1CCC(Cn2cc(CO)nn2)CC1 | -30
CC(C)OC(=O)CCC/C=C\C[C@@H]1[C@@H](/C=C/[C@H](O)CCc2ccccc2)[C@H](O)C[C@@H]1O | -15&-15
CC(CCC(=O)O)C1CCC2C3C(=O)CC4CC(=O)CC[C@]4(C)C3CC(=O)[C@]12C (stereo partly drawn) | -52
CC(C)C1=NOC(c2nc(-c3cccc4ccccc34)no2)C1 (stereo not drawn) | 36&36
COc1ccc(Br)cc1CNC(=O)C1CCC(=O)N1C(C)C (stereo not drawn) | -10
O=C(CCOc1ccccc1)Nc1nnc(-c2ccc(Cl)cc2)o1 | 1
O=S(=O)(O)CCNC1CCCCC1 | -27
COC(=O)C[C@](O)(CCCC(C)(C)O)C(=O)O[C@@H]1C(OC)=C[C@]23CCCN2CCc2cc4c(cc2[C@H]13)OCO4 | 2
O=C(CCn1c(=O)oc2ccccc21)N(Cc1ccccc1)c1ccccn1 | -10
O=C(Nc1nc2ccccc2s1)c1ccc(Cl)s1 | -21
CCOC(=O)c1oc2ccccc2c1NC(=O)c1cccs1 | 2
CCCCC(CC)CN1CN(CC(CC)CCCC)CC(C)(N)C1 (stereo not drawn) | 4
CCC1SC(CC)C(=O)N(CC(=O)Nc2ccccc2)C1=O (stereo not drawn) | -8
O=C(CSc1c[nH]c2ccccc12)N1CCOCC1 | -13
COc1cccc2cc(C(=O)NC3CCCCC3)c(=O)oc12 | 3
CCOC(=O)/C(C#N)=C1/Sc2ccccc2N1C | 4&-13
O=S(=O)(c1ccc(Br)cc1)C(F)(F)F | -9
Cc1cc(C)nc(SCc2cn3c(C)csc3n2)n1 | 1
CCCCCCCCCCCCCCCCOC[C@H](CO)OC(C)=O | 2&2
CCCCCCCCCCCCCCCC(=O)NC(CO)CO | -16&-16
O/N=c1\cc(-c2ccc3c(c2)OCCO3)oc2ccccc12 | -33
COc1ccccc1C(=O)Nc1sccc1C#N | -12
CCOC(=O)N1CCc2c(sc(NC(=O)/C=C/c3ccccc3)c2C#N)C1 | -12
COC(=O)/C=C1\SC(NC(C)=O)=NC1=O | -4
CNCc1cc(-c2ccccc2F)n(S(=O)(=O)c2cccnc2)c1 | -2
COc1ccc(C(=O)NCc2nc3ccccc3n2CC(C)C)cc1OC | 7
CC(C)n1c(CO)nc2ccccc21 | -29

Taken from above.
Entry of `COc1ccccc1C(=O)Nc1sccc1C#N` in HCMV UL50-53 inh: -12
Entry of `CCC1SC(CC)C(=O)N(CC(=O)Nc2ccccc2)C1=O` (stereo not drawn) in HCMV UL50-53 inh: -8

(cont.)
SMILES | HCMV UL50-53 inh
COC(=O)c1cccc(Oc2ncnc3sc(C)c(C)c23)c1 | -12
CCN1CCN(c2ccc(NC(=O)c3ccc(C)cc3)cc2)CC1 | 1
Cn1cc(S(=O)(=O)CC(=O)Nc2ccccc2)c2ccccc21 | -15
N#CC(C#N)=C(N=C(c1ccccc1)c1ccccc1)C(F)(F)F | -17
CCC(CC)CC1(C(=O)Nc2ccccc2SC(=O)C(C)C)CCCCC1 | -13
CCCCC/C=C/C=C1/C=CC(=O)[C@@H]1CCCCCCC(=O)O | -11&-11
CC(C)Cc1cn(C2CCN(C(=O)C3CCCCCC3)CC2)nn1 | -33
CCCC(=O)Oc1ccc2[nH]c(C(=O)c3cc4ccccc4[nH]3)cc2c1 | -27
CC(C)C(=O)N1CC(=O)Nc2ccc(Cl)cc2C1c1ccccc1 (stereo not drawn) | -6
COc1cc(/C=C/c2ccc(OC)cc2OC)cc(OC)c1 | -9&3&3
O=C(Oc1ccc(Cl)c2cccnc12)c1ccncc1 | -15
COCCN(C)Cc1ccc(-c2nc(C)c(C)c(=O)[nH]2)cc1 | -3
Cc1ccccc1CN1CCc2c(OCC(=O)N3CCOCC3)cccc2C1=O | -1
C=C1C2(C(=O)N3CCC(CCN4CCCC4=O)CC3)CCC(C2)C1(C)C (stereo not drawn) | -14
COc1ccc(C=C2C(=O)c3ccccc3C2=O)cc1 | -31
CCN(CC)C(=O)c1cn(-c2ccccc2)nc1-c1ccccc1 | 0
COCCn1c(=NC(=O)c2ccccc2OC)sc2cc(OC)ccc21 | -3
C=C1C2(C(=O)N3CCC(c4cccc(OC)c4OC)C3)CCC(C2)C1(C)C (stereo not drawn) | -11
Cc1c(Cl)cccc1N=Cc1nc(-c2ccccc2)oc1O | -15
CC(=O)Nc1ccc(OCC(O)CN2CCN(c3ccc(F)cc3)CC2)cc1 (stereo not drawn) | -11

Arranged by length of the SMILES (lowest first): 3 of the compounds above.
SMILES | HCMV UL50-53 inh
COc1cc(/C=C/c2ccc(OC)cc2OC)cc(OC)c1 | -9&3&3
N#CC(C#N)=C(N=C(c1ccccc1)c1ccccc1)C(F)(F)F | -17
CC(=O)Nc1ccc(OCC(O)CN2CCN(c3ccc(F)cc3)CC2)cc1 (stereo not drawn) | -11

Among those listed so far, 6 have a CF3 group:
SMILES | HCMV UL50-53 inh
O=c1[nH]c2ccccc2c2ncnc(Nc3ccc(OC(F)(F)F)cc3)c12 | -11
CC(C)CN1CCN(c2ccc(C(F)(F)F)cn2)C(C)C1=O (stereo not drawn) | -11
Cn1ncc(C(=O)CC#N)c1C(F)(F)F | -2
NC(=NC(=O)c1cnccc1C(F)(F)F)c1ccccn1 | -7
O=S(=O)(c1ccc(Br)cc1)C(F)(F)F | -9
N#CC(C#N)=C(N=C(c1ccccc1)c1ccccc1)C(F)(F)F | -17

(list continues)
SMILES | HCMV UL50-53 inh
CCCCC[C@H](O)/C=C/[C@H]1[C@H](O)CC(=O)[C@@H]1CC(=O)CCCCC(=O)O | 0&0
CCc1cc(-c2[nH]ncc2-c2nc3ccccc3n2C)c(O)cc1O | -23
N#Cc1cccn1-c1nccs1 | -1
O=c1oc2c(CN3CCCC3)c(O)ccc2c2c1CCCC2 | -19
COc1cccc(C(=O)Nc2nc3ccc(F)cc3s2)c1 | 0
CC(C)n1cnc2c(NCc3ccccc3O)nc(NCCCO)nc21 | -25
COc1ccc2[nH]c(-c3ccccc3)c(CCNC(C)=O)c2c1 | -4
CCNc1nc2ccccc2n1Cc1ccccc1F | 9
CC(CCc1ccc(O)cc1)NC1CCCCCC1 (stereo not drawn) | 5
Cc1cc(C)n(C(=O)CCNC(=O)c2ccccc2)n1 | -7
COC(=O)c1ccc2c(c1)C(=O)/C(=C/c1ccccc1F)O2 | -9
COc1cccc2sc(NC(=O)C3COc4ccccc4O3)nc12 (stereo not drawn) | -10
COc1ccc(CCNS(=O)(=O)c2cccc3cccnc23)cc1OC | -2
NS(=O)(=O)c1ccc(-c2ccc(C=C3C(=O)Nc4ccccc43)o2)cc1 | -11
COC(=O)c1c(-c2cc(OC)c(OC)c(OC)c2)c2ccnc(OCc3ncccn3)c2c(=O)n1Cc1ccnc(C)c1 | -5
O=C(CSc1c[nH]c2ccccc12)Nc1ccccc1 | -1
O=C1CCNc2ccc(C(F)(F)F)cc2N1 | -7
CCn1ncc(NC(=O)Cn2cc(C)c(-c3ccc(Cl)s3)n2)n1 | -4
CC(CO)NCC12CC3CC(CC(C3)C1)C2 (stereo not drawn) | -22
Cc1ccc(-c2csc(/C(C#N)=C\Nc3ccc(S(N)(=O)=O)cc3)n2)cc1 | 2
O=C(CC(SCc1ccco1)c1ccc(F)cc1)c1ccncc1 (stereo not drawn) | -17
Cc1cccc(OCCn2cnc3ccccc32)c1 | -1
